# Source: PubChem BioAssay (National Center for Advancing Translational Sciences (NCATS))
# VACV Venus inh – qHTS for Stage-Specific Inhibitors of Vaccinia Orthopoxvirus: Venus Reporter Primary qHTS | 0.46% of 330,000 active | AID 720580, 2013 | Vaccinia virus Venus reporter expression, fluorescence | Potency, µM (top dose mostly 36.5 µM), for inactives: top-dose activity change, negative = inhibition, usual class: inhibitors; active means well fitted inhibition curve with a large enough effect; inconclusive means small, poorly fitted or top-dose-only effect; inactive means no such curve, though single readings can be large or run the other way; tested in A549 cells; further: nearly all actives have a fitted effect of over 30% in size; inactives centre near -10
# Vaccinia mCherry – qHTS for Stage-Specific Inhibitors of Vaccinia Orthopoxvirus: mCherry Reporter Primary qHTS. Vaccinia virus mCherry reporter infection, fluorescence; about a quarter of the inactives have no number. Potency, µM (doses to about 36.5 µM), for the others: at the highest dose activity change, negative = inhibition, hits mostly inhibitors. 0.63% of 310,000 active. AID 720579, 2013; active = well fitted inhibition curve with a large enough effect; inconclusive = small, poorly fitted or top-dose-only effect; inactive = no such curve, though single readings can be large or run the other way; tested in A549 cells; further: nearly all actives have a fitted effect of over 35% in size; inactives centre near -10
# Active calls of the source: *; i = inactive; ? = inconclusive; . = not tested or not shown; & = joins results of further samples; [ ] = another dose, or the depositor's remark. On the % scale 0 is the no-effect control and ±100 the full control effect; potency means the concentration at half of the fitted maximal effect. The order is random. Share with any hit: about 0.82%.
# Order of results: VACV Venus inh, Vaccinia mCherry
- O=C(c1cc(-c2ccccc2)on1)N1CCc2ccccc2C1
    -15%, i
- Cc1ccccc1-c1cncnc1Nc1ccc(F)cc1
    -14%, i
- O=C(CCS(=O)(=O)c1ccc(Br)cc1)Nc1cc(F)ccc1F
    ?, 11µM*
- C#CCn1c(=NC(=O)c2cc(-c3cccs3)nc3ccccc23)sc2cc(S(N)(=O)=O)ccc21
    -28%, i
- COc1ccc(-c2sc3ccc(OC)cc3c2-c2ccc(OCCN3CCOCC3)cc2)cc1
    0%, i
- O=C(Nc1ccc(Br)cn1)c1ccc(Cl)s1
    -15%, -19%
- CSc1cc(C)c(OCC(=O)Nc2c(C)nn(C)c2C)c(C)c1
    -15%, i
- Cc1cc(C)c(C)c(OCC(=O)Nc2ccc(S(=O)(=O)Nc3nc(C)cc(C)n3)cc2)c1
    4%, -9%
- Cc1cc(C)cc(NC(=S)N2CCN(c3ccc(F)cc3)CC2)c1
    -2%, -12%
- Cc1ccc(C)c(NC(=S)N2CCN(CCO)CC2)c1
    -5%, -18%
- CCCCNC(=O)C(NC(=O)c1cccc(C(F)(F)F)c1)C(=O)c1ccccc1 (centres undefined)
    -10%, 8%
- O=C(CSc1nc(-c2ccccc2)cc(=O)[nH]1)Nc1ccc(F)c(F)c1
    -16%, i
- CCNC(=O)NC(=O)CN(C)c1ccccc1
    -20%, -10%
- COc1ccc(-c2noc(CNC(=O)c3ccoc3C)n2)cc1
    8%, -12%
- Cc1ccc(NC(=O)C2CC(=O)N/C(=N/NC(=O)c3ccc(C)cc3)S2)cc1 (centres undefined)
    -10%, -13%
- CN(CC(=O)Nc1cccc(F)c1)C(=O)c1ccc(-c2cccc(C(F)(F)F)c2)o1
    -25%, -3%
- O=C1CCC(C(=O)O)N1 (centres undefined)
    1%, 10%
- COc1cccc(N2C(=O)C3CCCN3C2c2cccs2)c1 (centres undefined)
    -2%, i
- COc1ccc(-c2noc(C(C)n3nc(C)c([N+](=O)[O-])c3C)n2)cc1OC (centres undefined)
    -20%, .
- CCCCN(CC)CCCNC(=O)CC1Nc2ccccc2NC1=O (centres undefined)
    -2%, .
- COc1cc(C(=O)N/N=C/c2sc(N3CCOCC3)nc2-c2ccccc2)cc(OC)c1OC
    -4%, 3%
- COc1ccccc1/C=C/[C@@H]1C[C@H]2CN(Cc3cccc(Cl)c3)C(=O)[C@]23CCCN13
    3%, -6%
- Cc1ccc(C(=O)N2CCN(CCNC(=O)C(=O)NC(C)C)CC2)cc1
    -8%, 0%
- COc1cccc(/C=C/C(=O)OCC(=O)c2ccc[nH]2)c1
    -9%, -6%
- CC1=C(C#N)C(NC(=O)c2ccccc2Cl)(C(F)(F)F)C(=O)N1 (centres undefined)
    -6%&4%, -10%
- C=CCc1ccc(OCCCCN2CC(C)CC(C)C2)c(OC)c1 (centres undefined)
    -12%, ?
- Cc1ccc(NC(=O)Cn2cc(C(=O)c3ccccc3)c3ccccc32)cc1
    -13%, -11%
- CCOC(=O)C(CC)Sc1cc(C)nc2ccc(OC)cc12 (centres undefined)
    -12%, -15%
- O=C(CC1Sc2ncnn2C1=O)Nc1ccc(Br)cc1 (centres undefined)
    3%, -11%
- Cc1noc(/C=C/c2ccccc2F)c1S(=O)(=O)N1CCC(C(=O)Nc2ccc(C#N)cc2)CC1
    -4%[7.34 µM], -4%[7.34 µM]

# Reformatted with tabs: 5 of the compounds above.
SMILES	VACV Venus inh	Vaccinia mCherry
COc1cc(C(=O)N/N=C/c2sc(N3CCOCC3)nc2-c2ccccc2)cc(OC)c1OC	-4%	3%
COc1ccc(-c2noc(C(C)n3nc(C)c([N+](=O)[O-])c3C)n2)cc1OC (centres undefined)	-20%	.
Cc1ccc(C(=O)N2CCN(CCNC(=O)C(=O)NC(C)C)CC2)cc1	-8%	0%
CCCCN(CC)CCCNC(=O)CC1Nc2ccccc2NC1=O (centres undefined)	-2%	.
CCOC(=O)C(CC)Sc1cc(C)nc2ccc(OC)cc12 (centres undefined)	-12%	-15%

# The list continues:
# Order of results: VACV Venus inh, Vaccinia mCherry
- Cc1cc(F)ccc1-c1cc(C(=O)NCc2ccccc2)[nH]n1
    10%, -4%
- O=S(=O)(Nc1ccc(S(=O)(=O)N2CCCCC2)cc1)c1cccs1
    -16%, -24%
- O=C(Nc1cc(S(=O)(=O)N2CCCCCC2)ccc1OCC(F)(F)F)C1CCC1
    -23%, -23%
- Fc1ccc(COc2cccc(CNCc3ccncc3)c2)cc1
    -15%, -26%
- Brc1ccc2nc(-c3ccccc3)c(Nc3ccc4c(c3)OCO4)n2c1
    -11%, -6%
- COc1ccc2c(C)cc(N3CCOCC3)nc2c1
    -11%, -16%
- OCC1OC(n2cnc3c(NCCc4ccccc4)ncnc32)C(O)C1O (centres undefined)
    -18%, -8%
- O=C1c2ccccc2CN1CCNS(=O)(=O)c1ccc2ccccc2c1
    -18%, .
- CC(C)(C)Nc1c(-c2cccs2)nc2ccccn12
    -5%, ?
- Cc1cc(OCC(=O)N2CCOCC2)c(C(C)C)cc1Cl
    -10%, -2%
- Cc1cc(C)n(C(N)=NC(=O)c2ccccc2)n1
    -23%, -18%
- Cc1ccc(S(=O)(=O)N(C)C)cc1NC(=O)CN1C(=O)NC2(CCCCCCC2)C1=O
    -24%, -28%
- COc1ccccc1NC(=O)c1nc(SCc2ccccc2F)ncc1Cl
    -17%, 18%
- COc1ccc(CNC(=O)CN2C(=O)NC(C)(c3cccc4ccccc34)C2=O)cc1OC (centres undefined)
    -17%, -3%
- Cc1cccc(CCNC(=O)CCc2c(C)nc3c(c(C)nn3-c3ccccc3)c2C)c1
    -7%, -15%
- COc1ccc(CNC(=O)Cn2cccc2C(=O)c2ccccc2C)cc1
    -12%, -7%
- O=C(COC(=O)c1ccc(S(=O)(=O)N2CCCCC2)cc1)NC1CCCCC1
    -16%, -6%
- Cc1ccc(OCC(=O)Nc2ccccc2F)cc1
    -4%, -2%
- Fc1ccc(-c2nc3c4ccccc4ccn3c2CC2CCCCC2)cc1
    5%, i
- COc1cc(OC)c(C(=O)OCC(=O)NC2CCCC2)cc1OC
    -12%, -10%
- CC(Cc1ccccc1)NC(=O)c1ccc([N+](=O)[O-])cc1 (centres undefined)
    -18%, -15%
- COc1ccc(-c2noc(CC(=O)Nc3ccc(F)cc3F)n2)cc1
    -14%, -11%
- CCC1SC(N)=NC1=O (centres undefined)
    -3%, .
- CC1(C)CC(=O)C(C2C3=C(CC(C)(C)CC3=O)Oc3ccccc32)=C(O)C1 (centres undefined)
    -26%, .
- COc1ccc(NC(=O)c2csc3c2CCCCC3)cc1
    -17%, -15%
- CCN(c1ccccc1)S(=O)(=O)c1ccc(Cl)c(NC(=O)CSc2n[nH]c(N)n2)c1
    -22%, -8%
- COc1ccc2nc(NC(=O)CCc3cc(OC)c(OC)c(OC)c3)sc2c1
    -12%, -15%
- CCc1c(C)sc(NC(=O)/C=C/c2ccc3c(c2)OCO3)c1C(=O)OC
    -6%, -17%
- COc1ccccc1NC(=O)CS(=O)(=O)c1cn(CC(=O)N2CCCC2)c2ccccc12
    -17%, -14%
- O=C(CC(Nc1ccccc1)c1ccc(F)cc1)c1ccccc1 (centres undefined)
    -8%, -17%
- COc1ccc(/C=N/Nc2nc3ccccc3c(=O)n2-c2ccccc2)cc1OC
    -20%, -7%
- COc1ccccc1-c1nnc(SCC(=O)N2CCCCC2)o1
    -9%, i
- O=C(O)COc1ccccc1C(Nc1ccccn1)c1cc(Cl)c2cccnc2c1O (centres undefined)
    -8%, i
- COc1ccc([N+](=O)[O-])cc1N(CC(=O)N1CCOCC1)S(C)(=O)=O
    -8%, -3%
- Cc1cc(Cl)c(OCCCN(C)C)c(Br)c1
    -14%, i
- COC(=O)C1=C(C)N(Cc2ccccc2)C(=NCc2cccc(Cl)c2)N[C@H]1c1ccccc1
    ?, -21%
- O=C(NCc1ccc(Cl)cc1)c1ccc(-c2ccccc2C(F)(F)F)o1
    -26%, -22%
- COc1cccc(CNC(=O)CN2C(=O)COc3ccc(S(=O)(=O)N4CCC(C)CC4)cc32)c1
    -19%, ?
- Cc1ccc2[nH]c3c(=O)n(CC(=O)N4CCCCC4)ncc3c2c1
    -5%, -1%
- COc1ccc(NC(=O)C(=O)NNC(=O)c2cccs2)cc1
    -15%, i
- CC1CCN(S(=O)(=O)c2ccc(NC(=O)Cc3ccc(S(=O)(=O)N4CCOCC4)s3)cc2)CC1
    -22%, ?
- COc1ccc(Cn2c(CCC(=O)Nc3ccc(C)cc3)nc3cccnc32)cc1
    -23%, -26%
- O=C(NCc1ccccc1)C(c1ccco1)N(C(=O)c1ccccn1)c1ccccc1 (centres undefined)
    -5%, -18%
- CC(C)=C(NC(=O)c1ccccc1Br)C(=O)NCCc1nc2ccccc2[nH]1
    -3%, -8%
- COc1ccccc1NC(=O)C(C)NS(=O)(=O)c1ccc(F)cc1 (centres undefined)
    7%, .
- CCOC(=O)N1CCN(C(=O)c2c(C)nn(-c3cccc(C)c3)c2-n2cccc2)CC1
    -15%, -8%
- CCc1c(C)c2ccc(OCC(=O)NCC3CCC(C(=O)O)CC3)c(C)c2oc1=O (centres undefined)
    -14%, -19%
- CCn1c(CNc2nc(-c3ccccc3)cs2)nnc1SCC(=O)NCc1ccco1
    -4%, -2%
- O=C(NCCC1=CCCCC1)c1ccc2c(c1)N(Cc1ccccc1F)C(=O)c1ccccc1S2(=O)=O
    -22%, -19%
- O=C(NOCc1cscn1)Nc1ccccc1
    -8%, -16%
- CCOC(=O)N1CCN(C(=O)CCS(=O)(=O)c2cc3c(cc2Cl)NC(=O)CO3)CC1
    0%, -5%
- C[C@]12CCC(=O)C=C1CCC1C2CC[C@@]2(C)C1CC[C@@]2(O)CC#N (some centres undefined)
    -6%, -14%
- O=C1CCc2nc3ccccc3c(=O)n2N1
    -24%, .
- CCOC(=O)[C@]12CCCC=C1N(Cc1ccccc1)C(=O)[C@H](CC(=O)N1CCCC1)C2
    -16%, -6%
- c1ccc(-c2nc3c([nH]2)CCc2nonc2-3)cc1
    12%, -4%
- O=C(NCCN1CCOCC1)Nc1ccccc1
    -5%, -22%
- C=CCNC(=O)c1ccc2c3n(nc2c1)-c1ccccc1CO3
    -27%, i
- OCCCNc1nc(-c2ccccc2)c2cc(Br)ccc2n1
    -26%, -23%
- O=C(Cn1cnc2c(NCc3ccccc3)ncnc21)N1CCN(c2ccccn2)CC1
    -5%, i
- Cc1nn(-c2cccc(C(F)(F)F)c2)c(Cl)c1/C=N/Nc1cccc(C(=O)O)c1
    -14%, i

# Some of the entries above, reformatted:
compound | VACV Venus inh | Vaccinia mCherry
O=C1CCc2nc3ccccc3c(=O)n2N1 | -24% | .
CCOC(=O)[C@]12CCCC=C1N(Cc1ccccc1)C(=O)[C@H](CC(=O)N1CCCC1)C2 | -16% | -6%
c1ccc(-c2nc3c([nH]2)CCc2nonc2-3)cc1 | 12% | -4%
O=C(NCCN1CCOCC1)Nc1ccccc1 | -5% | -22%
C=CCNC(=O)c1ccc2c3n(nc2c1)-c1ccccc1CO3 | -27% | i

# More structures.
# Order of results: VACV Venus inh, Vaccinia mCherry
- CC[C@H]1C(Nc2ccccc2)C[C@@H]2CCN3C(=O)CC[C@H]1[C@H]23 (some centres undefined)
    -6%, -25%
- CNC(=O)Nc1ccc(Cl)cc1
    -10%, 3%
- CN1CCN(C(=O)c2ccc(-c3ccccc3)cc2)CC1
    -3%, -10%
- COc1ccccc1CNC(=O)CSc1ccccc1
    -10%, 0%
- Nn1c(Nc2ccccc2)nc2sc3c(c2c1=O)CCCC3
    -6%, -5%
- COc1ccc(C(=O)N/N=C/c2cn[nH]c2-c2ccc(OC)cc2OC)cc1
    3%, i
- Cc1cc(C)n2nc(SCc3nnc(SCCCCl)o3)nc2n1
    -18%, i
- COc1cc(Cc2nc3ccc(S(=O)(=O)N4CCOCC4)cc3[nH]2)cc(OC)c1OC
    -17%, .
- Nc1ccc2oc3ncccc3c(=O)c2c1
    -6%, -16%
- CC1CC(C)(C)OC(c2ccc(C(C)C)cc2)O1 (centres undefined)
    -11%, i
- C/C(=N\NC(=O)CNC(=O)c1ccco1)c1ccc(Br)cc1
    -7%, i
- CCn1cc(C2=NOC(C(=O)Nc3c(C)nn(Cc4ccc(F)cc4)c3C)C2)c(C)n1 (centres undefined)
    -9%, i
- CCCCNC(=O)c1cnc2c(-c3ccc(OCC)c(OCC)c3)c(C)nn2c1-c1ccccc1
    -21%, -19%
- CCCNc1nc2c(c(=O)[nH]c(=O)n2C)n1Cc1ccc(F)cc1
    -13%, -25%
- CC1(C(=O)O)Cc2ccccc2C(=O)O1 (centres undefined)
    -14%, -10%
- Cc1cc(N=Nc2ccc3ccccc3c2)ccc1O
    -20%, -19%
- Cc1ccc(F)cc1C(=O)N1CCCC(c2cc(C(=O)NCc3ccc(F)cc3)no2)C1 (centres undefined)
    -14%, 17%
- CC1=C(C(N)=O)C(c2ccc(C(C)C)cc2)n2nc(SCc3ccccc3)nc2N1 (centres undefined)
    7%, 4%
- CN(C(=O)Cn1cc(C(F)(F)F)ccc1=O)c1c(N)n(Cc2ccccc2)c(=O)[nH]c1=O
    -14%, -9%
